CDC25B CDK2 inh: human CDC25B-CDK2/CyclinA binding inhibition. z-score (test concentration not listed). HTRF CDC25B-CDK2/CyclinA binding, anti-His/anti-Flag; stronger effect = higher value. P30305+P24941. actives 0.72% (n = 94,000);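 also: score is relative to mean and SD of negative controls; strong numbers were not always called active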
HIV TAR-Tat: HIV-1 TAR-Tat binding disruption; actives 0.6% (n = 100,000); HIV-1 TAR RNA, Tat peptide displacement FRET; stronger effect = higher value; z-score (concentration not given with the values);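 also: score is relative to mean and SD of negative controls; some compounds called inactive have numbers as strong as hits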
* = called active by the depositor; . = no result given.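 The calls were made as follows: active = z-score from 3 up in half or more of its runs; inactive = the rest.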 Compounds were not picked by outcome; overall some 0.9% were active at least once.

SMILES	CDC25B CDK2 inh	HIV TAR-Tat
Cc1c(C(=O)N2CCC(C)CC2)c(S(=O)(=O)N2CCCCC2)c(C)n1C	.	2.33
COC(=O)c1c(NC(=O)c2cc3ccccc3c(=O)o2)sc2c1CCCC2	-2.4	-0.03
CN(C)CCCNC(=O)c1c(F)cccc1NC(=O)c1cccs1	-1.98	.
Cn1c(=O)[nH]c(=O)c2[nH]c(N3CCN(CCO)CC3)nc21	-0.9	.
COc1ccccc1CNc1c2c(nc3ncnn13)CCCC2	.	0.72
CC(C)(O)C#Cc1ccc(/C=N/OC(=O)Nc2cccc(Cl)c2)cc1	-1.21	.
C=C(C)CSc1nc(=O)cc(N)n1-c1ccc(F)cc1	-0.26	1.14
N#Cc1c(NC(=O)c2ccc(Br)cc2)sc2c1CCCC2	-0.78	0.93
O=C(/C=C/c1cccc(C(=O)NO)c1)NO	.	0.97
CCCNC(=O)c1cnc(N2CCOCC2)nc1C	.	1.05
CCNc1nc(Nc2ccc(C)cc2C)c2cnn(C)c2n1	.	1.58
COc1ccc(Cl)cc1NCCN=Cc1cccc(OC)c1O	-2.25	.
c1csc(C2CC3(CS2)Nc2ccccc2S3)c1 (configuration not stated)	0.04	.
COc1ccc(/C=C/c2nc3n(n2)C=COc2ccccc2-3)cc1	-1.71	2.13
Cc1cccn2c(=O)cc(COc3ccc(NC(=O)C(C)C)cc3)nc12	.	0.31
CCc1nn2c(=O)cc(COC(=O)Cc3ccccc3)nc2s1	.	-1.1
O=C(NCCc1c[nH]c2ccccc12)Nc1ccccc1	-2.01	0.7
O=C(NCc1c(-n2cccc2)sc2c1CCCC2)Nc1ccccc1Cl	-2.27	1.53
COc1ccc(-c2ccc(Cc3nc(-c4ccc(OC)cc4)no3)cc2)cc1	-3.73	-1.32
OCC#CCSc1nc2ccccc2n1Cc1ccccc1	-1.36	0.49
O=C(NCc1cccs1)C1COc2ccccc2C1 (configuration not stated)	.	0.82
COc1nc(Nc2ccc(Br)cc2)nc(N)c1[N+](=O)[O-]	.	-0.36
CCN1CCN(C(=O)C2=CC(c3ccc4c(c3)OCO4)=NS(=O)(=O)N2C)CC1	-1.97	0.78
Cc1nc(C(F)(F)F)ccc1C(=O)N1CCCCC1	-1.34	.
Cc1ccc(S(=O)(=O)NCc2cccnc2)c(C)c1	-1.64	-0.1

Quoted at random: three compounds from above
SMILES	CDC25B CDK2 inh	HIV TAR-Tat
CCN1CCN(C(=O)C2=CC(c3ccc4c(c3)OCO4)=NS(=O)(=O)N2C)CC1	-1.97	0.78
CN(C)CCCNC(=O)c1c(F)cccc1NC(=O)c1cccs1	-1.98	.
COc1ccc(/C=C/c2nc3n(n2)C=COc2ccccc2-3)cc1	-1.71	2.13

New compounds follow
SMILES	CDC25B CDK2 inh	HIV TAR-Tat
Cc1cc(=O)[nH]c(SCc2cccc(Oc3ccccc3)c2)n1	-1.35	-0.14
COc1cc(Nc2c(-c3ccc4c(c3)OCC(=O)N4)c(=O)c2=O)cc(OC)c1	.	-1.48
Cc1nnc(SCc2ccc(F)cc2)[nH]c1=O	-0.74	0.78
C=CCSc1nnc2c(n1)OC(C)=Nc1ccccc1-2	-1.35	0.73
O=C(CSc1nc(-c2ccc(F)cc2)nc2cc(=O)[nH]n12)Nc1ccccc1	.	0.91
CCC1=NN(C(=O)COc2cc(C)ccc2C(C)C)C(O)(C(F)(F)F)C1 (configuration not stated)	-1.01	.
COc1ccc(-c2nc(Cn3nc(C)c4c(C)onc4c3=O)c(C)o2)cc1	.	-1.59
COCc1cc(C)nc2sc3c(=O)n(CCc4ccccc4)nnc3c12	-2.58	-0.3
CSC1=N/C(=C\c2ccc(C)o2)C(=O)S1	-1.29	-1
Cc1ccc(-c2nc3cc(N)ccc3o2)cc1N	-2.04	-6.43
CCc1nc(SCc2cc(=O)n3ccsc3n2)n[nH]1	.	0.23
CCSC1=C(C#N)C(c2ccc(C)cc2)CC(=O)N1 (configuration not stated)	-1.11	-0.7
COc1cc2c(cc1OC)n(CC(=O)NCCC1=CCCCC1)n1c(C)cc(=O)nc21	0.49	1.39
CCn1c(=O)c2c(C(=O)O)cc(=O)n(CC)c2n(C)c1=O	-1	-0.51
O=C1c2cc([N+](=O)[O-])ccc2-c2ccc([N+](=O)[O-])cc21	0.65	.
Cc1ccc(OCCSc2nc3ncnc(N)c3[nH]2)cc1C	-1.91	0.35
CC(=O)OC[C@H]1O[C@@H](Oc2cc(OC(C)=O)c3c(=O)cc(-c4ccc(OC(C)=O)cc4)oc3c2)[C@H](OC(C)=O)[C@@H](OC(C)=O)[C@@H]1OC(C)=O	.	0.11
CCOC(=O)c1cnc(SC)nc1NC(=O)Nc1ccc(Cl)cc1	.	2.98
COc1ccc(Nc2nc(NCc3ccco3)nc(N)c2[N+](=O)[O-])cc1	.	1.45
N/C(=N\NC(=O)Nc1ccccc1)c1ccccn1	-1.33	.
COc1ccc(Br)cc1/C=C/C(=O)Nc1ccc(F)cc1F	0.39	.
CN(C(=O)c1ccccc1)C(c1ccccc1)c1c[nH]c2ccccc12 (configuration not stated)	-0.18	-0.3
CCC(=O)N1CCc2cc(S(=O)(=O)NC(C(=O)NC3CCCC3)C(C)C)ccc21 (configuration not stated)	-0.34	.
O=C(NC1=NCCCN1)c1c(Cl)cccc1Cl	-1.23	.
C=CCN1C(=O)C2(/C(=C(/O)c3ccc4c(c3)CC(C)O4)C(=O)C(=O)N2CCN(C)C)c2ccccc21 (configuration not stated)	-0.17	1.09

Next part.
SMILES	CDC25B CDK2 inh	HIV TAR-Tat
O=C(Nc1ccc(Cl)cc1)N1Cc2cccn2-c2ccccc21	.	0.51
CC(=O)c1ccccc1C(=O)c1ccccc1	-0.71	.
Cc1oc2cc(OC(C)C)ccc2c(=O)c1Oc1ccccc1	-0.42	.
CCCCCCC(=O)Nc1cc2c(C)cc(=O)oc2cc1C	-1.17	.
c1ccc(CCn2c(SCCN3CCOCC3)nc3ccccc32)cc1	-1.96	2.01
O=C(NC(=O)c1cccc(CS(=O)(=O)c2ccc(Cl)cc2)c1)Nc1cccc(Cl)c1	-0.51	.
C=CCNC(=O)C1(c2cccs2)CCOCC1	.	1.08
Cc1cc(=O)n2[nH]c(CNc3ccccc3Cl)nc2n1	0.1	-1.26
O=C(NCc1ccco1)c1cn2c3c(ccc(Cl)c3c1=O)OCC2	.	0.84
O=C(CSc1nccn(-c2cccc(F)c2)c1=O)Nc1ccc(Br)cc1	.	-0.33
O=C(CCCCCNc1nc(=S)[nH]c2ccccc12)NCC1CCCO1 (configuration not stated)	0.5	.
COc1ccc(-c2noc(-c3cccnc3NCc3cccnc3)n2)cc1	0.49	-0.47
O=CNN(C=O)c1ccccc1	-1.89	.
Cc1nc2c(c(C)nn2C(C)(C)C)c(C)c1CCC(=O)NCC1CCN(CC(C)C)C1 (configuration not stated)	-0.91	1.22
CCCC(=O)Nc1ccc(-n2cnnn2)cc1	-1.14	1.27
Cn1c(=O)c2c(nc(CN3CCOCC3)n2Cc2c(F)cccc2Cl)n(C)c1=O	0.05	-0.51
COC(=O)c1sc(C(F)(F)F)c(-c2ccccc2)c1N	-0.13	.
Cc1ccc(CN(C(=O)Nc2cccc(Cl)c2)c2ccccn2)o1	0.84	1.04
O=C1c2cccc(Cl)c2C(=O)c2cccc(Cl)c21	-1.91	.
CC1CCCC(C)N1C(=O)C1C2CCC(O2)C1C(=O)O (configuration not stated)	-0.77	.
Cc1sc2nc(CNc3ccc(Br)cc3)[nH]c(=O)c2c1C	-0.2	-4.99
O=C(Nc1nonc1-c1ccc(Br)cc1)c1ccccc1F	0.03	2.67
O=C1c2ccccc2C(Nc2ccccc2Br)N1Cc1ccccc1 (configuration not stated)	-1.09	.
CC(C)(C)C1CCC2(CC1)N=C(c1cccc(F)c1)C(=O)N2 (configuration not stated)	0.12	.
COc1ccc(-c2noc(CNS(=O)(=O)c3ccc(Cl)cc3)n2)cc1OC	-3.03	1.9

An excerpt of these results, with values under each structure.
Under each structure: CDC25B CDK2 inh, HIV TAR-Tat
CC1CCCC(C)N1C(=O)C1C2CCC(O2)C1C(=O)O (configuration not stated)
    -0.77, .
COc1ccc(-c2noc(CNS(=O)(=O)c3ccc(Cl)cc3)n2)cc1OC
    -3.03, 1.9

Whole records as entered above.
`CC1CCCC(C)N1C(=O)C1C2CCC(O2)C1C(=O)O` (configuration not stated) is listed with CDC25B CDK2 inh = -0.77; HIV TAR-Tat = .
`COCc1cc(C)nc2sc3c(=O)n(CCc4ccccc4)nnc3c12` is listed with CDC25B CDK2 inh = -2.58; HIV TAR-Tat = -0.3

The list continues:
SMILES	CDC25B CDK2 inh	HIV TAR-Tat
O=C(CSc1ccccc1)Nc1nc2ccc(Cl)cc2o1	.	-0.43
Cc1ccc(C)c(S(=O)(=O)N2CCc3cc4cc(C)ccc4nc32)c1	-0.69	-0.73
CC(C)(C)N1Sc2ccccc2NC1=S	-0.7	.
Cn1c(=O)n(Cc2ccccc2)c(=O)c2c1[nH]c(=S)n2Cc1ccccc1	-1.15	.
Cc1ccc(S(=O)(=O)CC(C)N2CCCCC2)c(S(=O)(=O)CC(C)N2CCCCC2)c1 (configuration not stated)	-1.58	-0.98
O=c1/c(=C\c2ccc(Cl)cc2)sc2nc(-c3ccc(Cl)cc3)nn12	-2.28	.
O=C(NCc1ccco1)c1nnc(CS(=O)(=O)c2ccccc2)o1	-1.17	0.77
NC(=O)c1nnn(-c2ccc(F)cc2)c1N	-1.91	1.92
CC1CSc2ccc(S(=O)(=O)NC3CCCCC3)cc2NC1=O (configuration not stated)	.	1.16
Cc1ccc2onc(CNC(=O)NC3CCCC3)c2c1	.	0.4
COc1ccc(CNS(=O)(=O)c2ccc3c(c2)S(=O)(=O)N=CN3)cc1	.	-1.53
CNC(=S)N1CCc2sccc2C1c1ccc(Cl)cc1 (configuration not stated)	0.38	.
CN[C@@H]1[C@H](OC2[C@H](O[C@H]3[C@H](O)[C@@H](O)[C@H](N=C(N)N)[C@@H](O)[C@@H]3N=C(N)N)O[C@@H](C)[C@]2(O)C=O)O[C@@H](CO)[C@H](O)[C@H]1O (some centres not stated)	.	0.47
N#Cc1nc(/C=C/c2ccc(F)cc2)oc1N1CCN(C(=O)c2ccccc2Cl)CC1	-0.56	-0.23
COC(=O)C1=C(C)NC(=O)NC1c1cc(C(C)(C)C)c(O)c(C(C)(C)C)c1 (configuration not stated)	-2.42	.
O=C(Nc1c(C(=O)N2CCN(c3ccccc3)CC2)oc2ccccc12)c1cc(-c2cccs2)on1	-1.07	1.05
CCOC(=O)Nc1nc2ccc(C)cc2[nH]1	-1.57	.
Cc1ccc(C2=Nn3c(Cc4ccccc4)nnc3SC2)cc1	.	0.86
Cc1cc(NC(=O)CSc2ccc3nnc(-c4cccc(F)c4)n3n2)no1	-0.17	.
Cc1cc(Oc2ccc(C(F)(F)F)cc2NS(C)(=O)=O)cc(C)c1Cl	-1.59	.
CC(Nc1oc(COc2ccccc2F)nc1C#N)c1ccccc1 (configuration not stated)	0.56	2.4
O=c1[nH]c2ccc(S(=O)(=O)N3CCc4ccccc4C3)cc2[nH]c1=O	-0.46	.
Cc1cc(=O)n2nc(N3CCC(C(=O)NCCCN4CC(C)CC(C)C4)CC3)sc2n1 (configuration not stated)	-1.07	1.07
CC(C)NC(=O)c1c(NC(=O)c2ccccc2F)sc2c1CCC2	-5.31	.
CCCS(=O)(=O)c1cscc1NC=C(C(=O)OCC)C(=O)OCC	-2.52	.

A second format for 5 compounds above:
Fields – CDC25B CDK2 inh | HIV TAR-Tat
O=C(NCc1ccco1)c1nnc(CS(=O)(=O)c2ccccc2)o1
  -1.17 | 0.77
NC(=O)c1nnn(-c2ccc(F)cc2)c1N
  -1.91 | 1.92
CC1CSc2ccc(S(=O)(=O)NC3CCCCC3)cc2NC1=O (configuration not stated)
  . | 1.16
Cc1ccc2onc(CNC(=O)NC3CCCC3)c2c1
  . | 0.4
COc1ccc(CNS(=O)(=O)c2ccc3c(c2)S(=O)(=O)N=CN3)cc1
  . | -1.53

Additional entries.
SMILES	CDC25B CDK2 inh	HIV TAR-Tat
CC(C)OC(=O)C1C2C=CC3(CN(CC4CCCO4)C(=O)C13)O2 (configuration not stated)	-1.02	.
CCOC(=O)c1c(C)oc2ncnc(NCC(C)O)c12 (configuration not stated)	-1.26	1.22
CC1=C(c2ccccc2)S(=O)(=O)N=C1N1CCCCC1	-1.1	0.8
CCc1ccc(NC(=O)Nc2c(C)n(C)n(-c3ccccc3)c2=O)cc1	-0.6	1.1
CCN(CC)CCNc1nc(Nc2ccc(C)cc2)c2cnn(C)c2n1	.	1.64
CSc1nc(N)nc2sc3c(O)cc(=O)[nH]c3c12	6.46	11.1*
Cc1nnsc1C(=O)N1CCN(C2c3ccccc3-c3ccccc32)CC1	-1.35	.
CC(C)CN(CCCNC(=O)c1csc2c1CCCCC2)CC(C)C	-1.02	1.78
O=C(Cn1ncc2c1-c1ccccc1OC2)NCCc1ccsc1	-1.24	0.81
CSc1n[nH]c(N)c1S(=O)(=O)C(C)C	-2.16	.
O=c1[nH]nc(SCc2ccc(Cl)cc2)n1C1CC2C=CC1C2 (configuration not stated)	-1	.
CCCCn1c(CN2CCCCC2CC)nc2c1c(=O)n(C)c(=O)n2C (configuration not stated)	-0.25	-0.2
O=c1[nH]c2cc(Cl)ccc2c(-c2ccccc2)c1Sc1ccccn1	-0.98	1.64
CCc1nn(CC(=O)NCc2ccc3c(c2)OCO3)c(=O)c2cc3sccc3n12	-1.79	-0.27
COc1ccc(-c2nc3c4ccccc4[nH]c(=O)n3n2)cc1	-3.38	0.17
CC(C)(C)c1ccc(NC(=O)C(Cl)Cl)c(Cl)c1	0.05	.
O=C(CSc1ncnc2sc3c(c12)CCC3)Nc1ccc(F)cc1	-4.46	1.12
CC1=C(C(=O)OCCOc2ccccc2)C(c2coc3ccccc3c2=O)C2=C(CCCC2=O)N1 (configuration not stated)	-1.56	-0.94
CC(=O)Nc1ccc(SC(=O)c2cc(C)n(Cc3ccc(C)cc3)n2)cc1	-0.93	.
CCOC(=O)c1c(C)oc2nc(C)nc(NCCN3CCC(C)CC3)c12	.	0.24
CCC(NC(=O)c1cc(S(=O)(=O)N2CCCC2)cn1C)c1cccs1 (configuration not stated)	.	1.61
COc1cc2c(cc1OC)n(CC(=O)NC1CCCC1)n1c(C)cc(=O)nc21	-0.97	2.83

From PubChem BioAssay
